DUX4 txn inh – inhibitors of DUX4-driven ZSCAN4 reporter expression, primary screen, 293T cells, Gaussia and Italica luciferase. 293T-iDUX4 ZSCAN4-Gaussia luciferase reporter, 24 h; active compounds read low. activity change, negative = inhibition, % (concentration not given with the values). 37,000 compounds, 0.8% hits;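 active = -10% or lower and over 25 points stronger than a control reporter; inconclusive = -10% or lower with a smaller gap; inactive = above -10%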;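 also: 0% = median of neutral control wells and -100% = median of positive control wells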
DUX4 txn inh difference – further read-out of DUX4 txn inh, marked with its call; Gaussia minus Italica difference, %; measured here: selective DUX4 reporter inhibition;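 worked out from the two reporters; negative = selective loss of the DUX4 reporter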
DUX4 txn inh control – recorded beside DUX4 txn inh, whose call it bears; activity change, negative = inhibition, %; measured here: Italica tet-on control reporter;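 0 = neutral control and -100 = positive control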
Active calls of the source: *; ? = inconclusive; . = not tested or not shown. An excerpt; rates above refer to the full screens.

#	SMILES	DUX4 txn inh	DUX4 txn inh difference	DUX4 txn inh control
1	C[C@@H]1CN([C@H](C)CO)C(=O)c2cc(NC(=O)CCC(F)(F)F)ccc2O[C@H]1CN(C)Cc1ccc(-c2ccccc2)cc1	-1.9	-1.9	-0.1
2	COCC#Cc1ccc([C@H]2[C@H](CO)N3C(=O)CN(C(=O)Nc4ccccc4F)C[C@@H]23)cc1	6.4	-8.6	15.0
3	C[C@@H]1CN([C@H](C)CO)S(=O)(=O)c2ccc(C3=CCCCC3)cc2O[C@@H]1CN(C)C(=O)Nc1ccc2c(c1)OCO2	1.5	-3.4	4.9
4	CNC(=O)C[C@H]1CC[C@H]2[C@@H](COc3ccc(NS(=O)(=O)c4ccc(F)cc4)cc3C(=O)N2C)O1	-3.8	-2.3	-1.5
5	C[C@H](CO)N1C[C@H](C)[C@@H](CN(C)C(=O)OCc2ccccc2)OCc2cn(nn2)CCCC1=O	-4.1	-10.9	6.8
6	O=C(Nc1ccc2c(c1)[C@H]1C[C@H](CC(=O)N3CCc4ccccc4C3)O[C@H](CO)[C@H]1O2)c1cccnc1	?	.	.
7	Cc1noc(C)c1NC(=O)N(C)C[C@H]1OCc2ccccc2-c2ccccc2C(=O)N([C@H](C)CO)C[C@H]1C	10.6	0.9	9.6
8	CCCC#Cc1ccc([C@H]2[C@H](CO)N3CCCCN(Cc4cncnc4)C[C@@H]23)cc1	0.2	-0.4	0.6
9	CN(C)C(=O)c1cccc(-c2ccc([C@H]3[C@@H](C#N)N(C(=O)C4CC4)[C@@H]3CO)cc2)c1	?	.	.
10	COC(=O)N(C)C[C@H]1OCc2ccccc2-c2ccccc2C(=O)N([C@H](C)CO)C[C@@H]1C	15.8	10.6	5.2
11	COCC(=O)Nc1ccc2c(c1)[C@@H]1C[C@@H](CC(=O)NC3CCCC3)O[C@H](CO)[C@@H]1O2	-2.2	-5.7	3.4
12	C[C@@H](O)C#Cc1ccc([C@H]2[C@@H](CO)N3CCCCN(C(=O)c4cccc(F)c4)C[C@H]23)cc1	-3.3	-20.9	17.6
13	CN1C(=O)c2cc(NC(=O)C3CC3)ccc2OC[C@H]2O[C@H](CC(=O)NCc3cccc(F)c3)CC[C@H]21	-0.1	3.0	-3.0
14	COc1cccc(S(=O)(=O)N2C[C@H](O)COC[C@H]3O[C@H](CC(=O)NCCCN4CCOCC4)CC[C@@H]32)c1	6.7	0.9	5.7
15	COCC#Cc1ccc([C@H]2[C@@H](CO)N3CCCCN(C(=O)CN(C)C)C[C@@H]23)cc1	16.0	-3.0	18.9

Full records, quoted from the list. Order of screens: DUX4 txn inh, DUX4 txn inh difference, DUX4 txn inh control
`COCC#Cc1ccc([C@H]2[C@@H](CO)N3CCCCN(C(=O)CN(C)C)C[C@@H]23)cc1` reads 16.0, -3.0, 18.9
`Cc1noc(C)c1NC(=O)N(C)C[C@H]1OCc2ccccc2-c2ccccc2C(=O)N([C@H](C)CO)C[C@H]1C` reads 10.6, 0.9, 9.6
`C[C@H](CO)N1C[C@H](C)[C@@H](CN(C)C(=O)OCc2ccccc2)OCc2cn(nn2)CCCC1=O` reads -4.1, -10.9, 6.8
`COCC#Cc1ccc([C@H]2[C@H](CO)N3C(=O)CN(C(=O)Nc4ccccc4F)C[C@@H]23)cc1` reads 6.4, -8.6, 15.0

Returning to the listing; the 2 compounds before the break are reprinted first.
#	SMILES	DUX4 txn inh	DUX4 txn inh difference	DUX4 txn inh control
14	COc1cccc(S(=O)(=O)N2C[C@H](O)COC[C@H]3O[C@H](CC(=O)NCCCN4CCOCC4)CC[C@@H]32)c1	6.7	0.9	5.7
15	COCC#Cc1ccc([C@H]2[C@@H](CO)N3CCCCN(C(=O)CN(C)C)C[C@@H]23)cc1	16.0	-3.0	18.9
16	CCNC(=O)Nc1ccc2c(c1)C(=O)N(C)[C@H]1CC[C@H](CC(=O)NCCOC)O[C@@H]1CO2	6.0	0.9	5.1
17	CCCNC(=O)C[C@H]1CC[C@H]2[C@@H](COC[C@H](O)CN2C(=O)Nc2ccc3c(c2)OCO3)O1	6.0	-1.4	7.5
18	CCNC(=O)C[C@@H]1CC[C@@H]2[C@H](COC[C@H](O)CN2C(=O)Nc2ccc(Cl)c(Cl)c2)O1	4.6	3.8	0.8
19	Cc1noc(C)c1NC(=O)N[C@@H]1CC[C@H](CC(=O)NCc2ccc(Cl)c(Cl)c2)O[C@@H]1CO	5.1	-0.2	5.3
20	N#C[C@@H]1[C@@H](c2ccc(-c3ccccc3F)cc2)[C@H](CO)N1C(=O)C1CCC1	-3.1	-0.7	-2.4
21	CO[C@H]1CN(C)C(=O)c2cc(NS(=O)(=O)c3ccccc3F)ccc2OC[C@H](C)NC[C@H]1C	4.0	3.9	0.1
22	O=C(c1cccnc1)N1C[C@H]2[C@@H](c3ccccc31)[C@@H](CO)N2Cc1ccc2c(c1)OCO2	-1.5	-1.3	-0.2
23	Cc1ccccc1S(=O)(=O)N1CCCCN2[C@H](CO)[C@H](c3ccc(-c4cccnc4)cc3)[C@@H]2C1	?	.	.
24	CN1c2ccc(-c3cccc(C#N)c3)cc2[C@@H]2[C@@H](CCN2S(=O)(=O)c2cccc(F)c2)[C@@H]1CO	-5.8	1.9	-7.7
25	N#C[C@@H]1[C@H](c2ccccc2-c2ccccc2)[C@@H](CO)N1C(=O)Cc1ccncc1	-0.5	5.3	-5.7
26	O=C(Nc1cc(F)ccc1F)N1C[C@H]2[C@@H](c3ccccc31)[C@H](CO)N2Cc1ccncc1	0.3	-4.2	4.4
27	O=C(c1ccccc1F)N1CC(=O)N2[C@H](CO)[C@H](c3ccc(-c4cccnc4)cc3)[C@H]2C1	0.8	-3.6	4.5
28	CO[C@H](CN(C)C(=O)c1ccccc1F)[C@@H](C)CN([C@H](C)CO)S(=O)(=O)c1ccc(F)cc1	-3.5	-0.5	-3.0
29	COC(=O)[C@H]1[C@H](CO)[C@H]2Cn3c(ccc(-c4ccccc4F)c3=O)[C@H]2N1C(=O)CC1CC1	7.4	9.5	-2.1
30	CC(C)CC#Cc1ccc([C@@H]2[C@@H](CO)N3CCCCN(C(=O)NC4CCCC4)C[C@H]23)cc1	?	.	.
31	CC(C)NC(=O)N1CC2(C1)[C@@H](c1ccccc1)[C@H](CO)N2C(=O)C1CCCCC1	10.2	3.7	6.4
32	C[C@H](CO)N1C[C@H](C)[C@H](CN(C)CC2CC2)Oc2c(cccc2N(C)C)C1=O	-1.3	0.4	-1.7
33	O=C(NC[C@@H]1[C@H](c2ccccc2)[C@@H](CO)N1C(=O)C1CC1)NC1CCCC1	0.1	-3.0	3.1
34	CCCC(=O)Nc1ccc2c(c1)C(=O)N(C)[C@@H]1CC[C@@H](CC(=O)N3CCCCC3)O[C@H]1CO2	2.3	1.3	1.0
35	CO[C@H]1CN(C)C(=O)c2cc(NS(=O)(=O)c3ccc(Oc4ccccc4)cc3)ccc2OC[C@H](C)NC[C@@H]1C	?	.	.
36	CN1CCCCN2[C@@H](CO)[C@@H](c3ccc(C4=CCCC4)cc3)[C@@H]2C1	17.5	13.5	4.0
37	CC=Cc1ccc2n(c1=O)C[C@H]1[C@H](CO)[C@@H](C(=O)NCCC)N(Cc3cccnc3)[C@@H]21 (mixture of isomers)	-0.4	-5.1	4.7
38	O=S(=O)(NC[C@@H]1N[C@H](CO)[C@@H]1c1ccc(C2=CCCC2)cc1)c1ccccc1	2.0	-1.5	3.5
39	CN(C)C(=O)c1cccc(-c2ccc(C3[C@H]4CNC[C@@H]3N4S(=O)(=O)Cc3ccccc3)cc2)c1 (stereo partly specified)	8.9	12.4	-3.5
40	C[C@@H]1CCCCO[C@H](CN(C)S(=O)(=O)c2ccccc2)[C@@H](C)CN([C@H](C)CO)C(=O)c2cc(NS(C)(=O)=O)ccc2O1	-2.3	-8.3	6.1
41	C[C@@H]1CN([C@H](C)CO)C(=O)c2cc(C#CC3(O)CCCC3)cnc2O[C@@H]1CN(C)C(=O)Nc1ccc2c(c1)OCO2	-0.1	-1.8	1.7
42	C[C@@H](O)C#Cc1cnc2c(c1)C(=O)N([C@@H](C)CO)C[C@H](C)[C@H](CN(C)Cc1cncnc1)O2	-1.0	-4.2	3.2
43	Cc1ccccc1S(=O)(=O)N1[C@@H](C#N)[C@H](c2ccccc2)[C@@H]1CO	-0.9	-2.8	1.9
44	O=C(C[C@H]1C[C@H]2c3cc(NC(=O)Cc4ccncc4)ccc3O[C@H]2[C@H](CO)O1)NCCc1ccccc1	-21.4*	-31.0*	9.7*
45	CCCN1C[C@H](C)[C@@H](OC)CN(C)C(=O)c2cc(NC(=O)NC3CCCCC3)ccc2OC[C@@H]1C	-7.7	-6.4	-1.2
46	CCCN1C[C@@H](C)[C@@H](OC)CN(C)C(=O)c2ccc(NS(C)(=O)=O)cc2OC[C@H]1C	7.4	3.8	3.5
47	COc1ccc(C#Cc2ccc([C@@H]3[C@@H](CO)N4C(=O)CN(C(=O)c5cccnc5)C[C@H]34)cc2)cc1	-8.6	-10.6	2.1
48	CCc1cnc(N2[C@@H](C#N)[C@H](c3ccc(C#Cc4ccccc4F)cc3)[C@@H]2CO)s1	2.9	2.4	0.5
49	C/C=C/c1ccc([C@@H]2[C@H](CO)N(C(=O)CC)C23CN(S(C)(=O)=O)C3)cc1	4.0	2.3	1.6
50	COC(=O)C[C@H]1CC[C@@H]2[C@H](COC[C@@H](O)CN2C(=O)Nc2ccccc2OC)O1	4.0	0.2	3.8
51	CCC(=O)N1[C@H](CO)[C@H](c2ccccc2)[C@H]1CNC(=O)CN1CCOCC1	-0.1	1.0	-1.1
52	CC(C)NC(=O)N1CCCCN2[C@@H](CO)[C@@H](c3ccc(C#Cc4ccccc4)cc3)[C@@H]2C1	?	.	.
53	C[C@@H]1CN([C@H](C)CO)C(=O)c2cccc(NC(=O)Nc3ccc4c(c3)OCO4)c2O[C@H]1CN(C)Cc1ccc(C(=O)Nc2ccccc2N)cc1	4.4	5.3	-1.0
54	C[C@@H]1CN([C@H](C)CO)C(=O)c2c(c3ccccc3n2C)-c2ccccc2CO[C@H]1CN(C)C(=O)[C@@H](Cc1ccccc1)N(C)C	-1.8	5.4	-7.2
55	CN1c2ccc(Br)cc2[C@H]2[C@H](CCN2C(=O)Nc2cccc(F)c2)[C@@H]1CO	13.7	14.1	-0.3
56	COc1cccc(-c2ccc([C@@H]3[C@@H](CO)N4C(=O)CN(C(=O)CN5CCOCC5)C[C@H]34)cc2)c1	14.8	8.1	6.7
57	C[C@@H]1CN([C@@H](C)CO)C(=O)Cc2cc(NS(=O)(=O)c3cn(C)cn3)ccc2O[C@H]1CN(C)C(=O)NC1CCCCC1	1.2	-4.6	5.7
58	CC(C)CN(C[C@H]1[C@H](c2ccccc2)[C@@H](CO)N1C(=O)C1CCC1)C(=O)C1CC1	-0.2	-1.0	0.8
59	CO[C@H]1CC[C@@H]2CCOc3c(C#N)cccc3C(=O)N(C)CCCC(=O)N(C)C[C@@H]1O2	-2.3	-3.1	0.8
60	COc1ccc(S(=O)(=O)Nc2ccc3c(c2)C(=O)N([C@H](C)CO)C[C@H](C)[C@@H](CN(C)S(=O)(=O)c2cn(C)cn2)OCCCC[C@H](C)O3)cc1	3.1	2.4	0.7
61	COc1ccc2c3c([nH]c2c1)[C@H](CO)N(C(=O)c1cccnc1)CC31CN(C(=O)c2cccnc2)C1	18.6	18.5	0.2
62	COCC#Cc1ccc2c(c1)O[C@H](CN(C)S(=O)(=O)c1ccc(OC)cc1)[C@@H](C)CN([C@@H](C)CO)S2(=O)=O	1.3	-3.0	4.3
63	Cc1ccccc1S(=O)(=O)N1[C@@H]2Cn3c(cccc3=O)[C@H]1[C@@H](C(=O)N1CCOCC1)[C@@H]2CO	4.3	5.2	-1.0
64	COc1ccc(S(=O)(=O)N[C@H]2C=C[C@@H](CC(=O)NCc3ccccc3F)O[C@@H]2CO)cc1	-2.0	2.9	-5.0
65	Cc1ccc(S(=O)(=O)N(C)C[C@@H]2Oc3ccc(NC(=O)CCCN(C)C)cc3C(=O)N([C@H](C)CO)C[C@@H]2C)cc1	2.4	-1.0	3.4
66	C/C=C/c1ccc([C@@H]2[C@@H](CO)N(C(C)=O)[C@H]2CN(C)S(C)(=O)=O)cc1	-4.9	-4.7	-0.2
67	COc1ccc(NC(=O)Nc2cccc3c2O[C@H](CN(C)Cc2ccc(C(=O)O)cc2)[C@H](C)CN([C@@H](C)CO)C3=O)cc1	-5.0	-5.0	0.0
68	COc1cccc(CN2CC3(C2)CN(C(=O)C2CC2)[C@@H](CO)c2c3c3ccc(OC)cc3n2C)c1	?	.	.
69	CCCNC(=O)N1C[C@H](O)COC[C@H]2O[C@@H](CC(=O)OC)CC[C@@H]21	8.3	2.4	6.0
70	COc1ccccc1C#Cc1ccc2c(c1)[C@@H]1[C@@H](CCN1C(=O)CN1CCOCC1)[C@H](CO)N2	21.6	19.6	1.9
71	C[C@@H]1CN([C@@H](C)CO)C(=O)c2cc(C#CC(C)(C)O)cnc2O[C@H]1CN(C)C(=O)C1CCOCC1	-0.1	-3.9	3.8
72	CCS(=O)(=O)N1CCC2(CC1)CN(C(=O)c1cccc(F)c1)[C@H](CO)c1c2c2ccc(OC)cc2n1C	8.9	-9.6	18.4
73	CNC[C@@H]1Oc2ccc(NS(=O)(=O)c3ccc(OC)cc3)cc2C(=O)N([C@H](C)CO)C[C@H]1C	1.8	-0.4	2.2
74	CCN(C[C@@H]1[C@@H](c2ccccc2)[C@H](CO)N1CC1CCCC1)C(C)=O	-5.0	-4.2	-0.8
75	C/C=C/c1ccc([C@H]2[C@@H](CO)N(C(=O)C3CCCCC3)C23CN(C(=O)NC(C)C)C3)cc1	-3.2	-4.4	1.2

Assay outcomes: PubChem, Broad Institute
